HPGD inh = qHTS Assay for Inhibitors of HPGD (15-Hydroxyprostaglandin Dehydrogenase). Potency, µM, for inactives: at the top dose activity change, negative = inhibition, usual class: inhibitors. AID 894, 2007. purified HPGD, NADH fluorescence kinetic, PGE2 substrate. hit rate 4.3% among 150,000. 15-hydroxyprostaglandin dehydrogenase [NAD(+)] (Homo sapiens), P15428; active = well fitted inhibition curve with a large enough effect (not every such curve was filed as active); inconclusive = small, poorly fitted or top-dose-only effect, or another doubt; inactive = no such curve, though single readings can be large or run the other way;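 also: top concentration of the series not given in the record; plate controls included wells without enzyme; inactives centre near -10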
Target sequence (P15428 whole entry, looked up): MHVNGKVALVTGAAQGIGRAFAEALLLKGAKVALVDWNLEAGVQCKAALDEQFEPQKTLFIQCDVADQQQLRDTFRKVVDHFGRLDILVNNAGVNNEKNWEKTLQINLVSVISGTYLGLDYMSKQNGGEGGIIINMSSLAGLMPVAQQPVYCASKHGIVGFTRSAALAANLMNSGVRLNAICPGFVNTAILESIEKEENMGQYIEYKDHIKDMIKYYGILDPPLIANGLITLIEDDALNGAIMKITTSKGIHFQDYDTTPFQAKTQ
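NADH formation kinetics: reaction with 30 uM PGE2 and 1 mM NAD+ (final), 20 nM enzyme, Tris-HCl pH 8 with Tween 20, after 15 min compound preincubation at room temperature. Fluorescence change, last versus first of five reads.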
* hit, by the source's call; ? = inconclusive; & = joins results of further samples. % is scaled to controls: 0 for no effect and ±100 for the full control effect; potency is read from the fitted curve at half-maximal effect.

HPGD inh	canonical_smiles
-7.5%	CCC(C(=O)O)n1c(C(F)(F)F)nc2ccccc21 (stereo unspecified)
-20.8%	COCCSc1nnc(NC(=O)Cc2cccs2)s1
-7.3%	CCOC(=O)CN1NC2(CCC(C)CC2)NC1=S (stereo unspecified)
-7.8%	Cc1cccc(-n2c(O)c(C=NCc3ccccn3)c3ccccc3c2=O)c1
-12.1%	COc1ccc(-n2c(=O)c3ccccc3n(CC(=O)Nc3cc(C)on3)c2=O)cc1OC
-4.3%	COc1ccc(C(=O)N2CCC(N3CCN(c4ccccc4)CC3)CC2)cc1OC
-7.7%	Nc1cc(=O)[nH]c(=S)n1-c1ccccc1
-12.1%	Cn1c(=O)c2c(SCC(N)=O)nc(CC(C)(C)C)nc2n(C)c1=O
-6.3%	Cc1cnc(C(=O)OCC(=O)N2CCc3ccccc3C2)cn1
-17.8%	O=C1CN(C(=O)COC(=O)C2CCN(S(=O)(=O)c3ccccc3C(F)(F)F)CC2)c2ccccc2N1
-3.1%	Cc1cccc(-n2c(Cc3ccccc3)nnc2SCc2ccc([N+](=O)[O-])cc2)c1
-16.1%	O=C(NN1C(=O)c2ccccc2NC1c1ccccn1)c1ccc(Br)cc1 (stereo unspecified)
1.1%	CCOC(=O)C(NC(=O)CC(C)C)(Nc1cc(C)on1)C(F)(F)F (stereo unspecified)
-22.1%	Cc1ccc(/C=C/C(=O)NCCCc2ccccc2)cc1
?	CCc1nnc(NS(=O)(=O)c2ccc(NC(=O)/C=C/c3ccc(OC)cc3OC)cc2)s1
-4.6%	COC(=O)c1sc(NC(=O)c2csc3c2CCCC3)nc1C
?	COc1cc2ccc(=O)oc2c(O)c1O
-3.4%	O=C(O)CN1CCN(Cc2ccccc2)C1=O
-26.5%	COc1ccc(C(=O)N[C@H](C(=O)OCc2cc(=O)oc3cc(C)ccc23)C(C)C)cc1
-23.7%	Cc1ccccc1N=Nc1c(C)[nH]n(C(N)=S)c1=O
-12.3%	CCC(=O)Nc1nc(-c2ccccc2)ns1
-1.3%	CC1(C)S[C@@H]2[C@H](NC(=O)[C@H](N)c3ccc(O)cc3)C(=O)N2[C@H]1C(=O)O
-3.1%	CCn1cc(/C=N/NC(=O)COc2cccc3cccnc23)c2ccccc21
-18.6%	COc1ccc2c(c1)CCc1c(C(=O)NC3CCCCC3)noc1-2
-8.8%	CN(C)S(=O)(=O)c1cccc(N=C2NN=C(c3ccccc3)CS2)c1
-16.3%	COc1cccc(S(=O)(=O)NCc2ccc(C(=O)Nc3cccc(Cl)c3)cc2)c1
-15.3%	CCCc1nnc(NC(=O)CC(=O)Nc2ccccc2C(=O)O)s1
?	COC(=O)c1sc(-c2ccccc2)cc1NC(=O)c1cc(OC)cc(OC)c1
1.6%	CC(=O)Nc1ccc(S(=O)(=O)N[C@H](C(=O)O)C(C)C)cc1
5.8%	CCOC(=O)CSCc1cn2cc(Cl)ccc2n1
?	CC1(C)CC2CC(C)(CN2S(=O)(=O)c2ccc(C(=O)Nc3ccc(S(=O)(=O)N4CCOCC4)cc3)cc2)C1 (stereo unspecified)
-21.4%	CCOC(=O)C1C(=O)CC(=O)CC1CC(C)SCC (stereo unspecified)
-26.7%	Cc1cc2ncc(Cl)nc2cc1C
-14.0%&-0.8%	COc1[nH]c2ccc(F)cc2c1C(=O)OCC1CCN(CCNS(C)(=O)=O)CC1
-14.6%	CCN(CC)CCN1C(=O)C(=O)/C(=C(/O)c2c(C)[nH]c(C(=O)OC)c2C)C1c1cccnc1 (stereo unspecified)
-21.6%	O=C(NCc1ccccn1)c1ccc(=O)oc1
?	COc1ccc(Cl)cc1C(=O)Nc1ccc(NC(=O)c2ccco2)cc1
-12.9%	Fc1ccc(-c2nnc3ccc(N4CCCC4)nn23)cc1
-6.0%	CSCCC(NC(=O)c1ccccc1)C(=O)Nc1ccc(NC(C)=O)cc1 (stereo unspecified)
-5.5%	COC(=O)c1ccc(C23CC4(C2)[C@H](CN(C)[C@@H]4c2ccccc2)C3c2ccccc2)cc1 (stereo partly specified)
-5.6%	Cc1cc2occ(CC(=O)Nc3nccs3)c2cc1C(C)C
15.8µM*	O=C(CSc1nccn1-c1cccc(Cl)c1)NC1CCCC1
-5.0%	CCc1cccc(CC)c1-n1c(SCn2nnc3ccccc3c2=O)nnc1-c1cccnc1
-3.6%	O=C(NC1(C(F)(F)F)NC(=O)N(Cc2cccnc2)C1=O)c1ccccc1Cl (stereo unspecified)
-5.2%	CCN1CCN(C(=O)c2ccc3c(=O)n(C4CCCC4)c(=S)[nH]c3c2)CC1
-14.1%	Cn1c(=O)c2c(nc(CN3CCc4ccccc4C3)n2Cc2ccc(Cl)cc2)n(C)c1=O
-19.0%	COc1ccc(OC)c(C2C=C(c3ccc(C)c(C)c3)Nc3nnnn32)c1 (stereo unspecified)
-20.6%	O=C(NCc1cccs1)C1CCN(c2ccc(S(=O)(=O)N3CCOCC3)cc2Cl)CC1
0.6%	Cc1cc2c(s1)CCCCC(=O)N2
-8.6%	O=C(c1cccc(S(=O)(=O)N2CCc3ccccc3C2)c1)N1CCN(c2ccc(O)cc2)CC1
-20.4%	COCC(=O)N(Cc1cc2ccccc2[nH]c1=O)c1ccc(OC)cc1
?	O=C(c1cc(-c2cccs2)nc2ccccc12)N1CCN(S(=O)(=O)c2cccc(F)c2)CC1
14.1µM*	O=C(O)c1cc(O)c2c(c1)C(=O)c1cc(O)cc(O)c1C2=O
?	COc1ccc(S(=O)(=O)N2CCCC2C(=O)Nc2nnc(-c3cccnc3)s2)cc1 (stereo unspecified)
-12.2%	Cc1ccc2c(c1)C(SCC(=O)NCCc1ccccc1)CC1(CCCC1)O2 (stereo unspecified)
-4.9%	CNS(=O)(=O)c1ccc(NC(=O)c2nc3nc(C)cc(C(F)F)n3n2)cc1
-21.8%	CN=C1c2ccccc2CN1c1cccc(C(=O)OC)c1
4.3%	CCC(CC)C(=O)NCCc1ccc(OC)cc1
-22.0%	Cc1ccn2c(-c3csc(NCc4ccco4)n3)c(C)nc2c1
-55.2%	c1ccc(-c2cn3nc4c(nc3n2)CCCC4)cc1

Reformatted as a markdown table: 3 of the compounds above
| structure | HPGD inh |
| --- | --- |
| O=C(c1cc(-c2cccs2)nc2ccccc12)N1CCN(S(=O)(=O)c2cccc(F)c2)CC1 | ? |
| O=C(O)c1cc(O)c2c(c1)C(=O)c1cc(O)cc(O)c1C2=O | 14.1µM* |
| COc1ccc(S(=O)(=O)N2CCCC2C(=O)Nc2nnc(-c3cccnc3)s2)cc1 (stereo unspecified) | ? |

Further compounds.
HPGD inh	canonical_smiles
?	CCCCNC(=O)c1onc(CSc2cccc(OCC)c2)c1C(=O)O
-16.1%	O=C(COC(=O)/C=C/c1ccc(Cl)cc1)NCCC1=CCCCC1
-10.4%	Cn1cnnc1SCC(=O)Nc1ccccc1C(=O)NC1CC1
-5.8%	Cc1ccc2c(c1)NC(=O)C(CC(=O)NCCCN1CCN(c3cc(C)ccc3C)CC1)O2 (stereo unspecified)
-4.2%	CCc1nnc(NC(=O)CSc2nnc(-c3ccccc3O)n2CC)s1
-3.8%	CCOC(=O)c1cc2nc(Nc3ccc(OC)cc3)sc2s1
0.3%	CC1CCN(C(=O)CSc2nnc(CNC(=O)COc3ccc(Cl)cc3)o2)CC1
-11.0%	CCN1CCN(Cc2nc3c(c(=O)n(C)c(=O)n3C)n2Cc2ccccc2Cl)CC1
?	OCCCc1nc2n(n1)C(c1ccccc1Cl)C=C(c1cccs1)N2 (stereo unspecified)
-2.0%	CCOC(=O)N1CCC(NC(=O)COc2cc(=O)n(C)c3ccccc23)CC1
-19.8%	CSc1nc(-c2ccco2)nn1C(=O)c1ccco1
?	Cc1cc(NCCCN2CCOCC2)n2ncc(-c3ccc(Cl)cc3)c2n1
?	O=C(CSc1nc2ccccc2s1)N1N=C(c2cccs2)CC1c1ccc(F)cc1 (stereo unspecified)
-12.3%	COc1cccc(C(=O)Oc2cccc(N3C(=O)C4C5CC(C(Br)C5Br)C4C3=O)c2)c1 (stereo unspecified)
-14.5%	CC(=O)c1ccc(Cc2ncc(C(F)(F)F)cc2Cl)s1

Some of these compounds in order of their number in HPGD inh, smallest number first.
HPGD inh	canonical_smiles
-16.1%	O=C(COC(=O)/C=C/c1ccc(Cl)cc1)NCCC1=CCCCC1
-12.3%	COc1cccc(C(=O)Oc2cccc(N3C(=O)C4C5CC(C(Br)C5Br)C4C3=O)c2)c1 (stereo unspecified)
-11.0%	CCN1CCN(Cc2nc3c(c(=O)n(C)c(=O)n3C)n2Cc2ccccc2Cl)CC1
-10.4%	Cn1cnnc1SCC(=O)Nc1ccccc1C(=O)NC1CC1
-5.8%	Cc1ccc2c(c1)NC(=O)C(CC(=O)NCCCN1CCN(c3cc(C)ccc3C)CC1)O2 (stereo unspecified)
-2.0%	CCOC(=O)N1CCC(NC(=O)COc2cc(=O)n(C)c3ccccc23)CC1

Going on with the list.
HPGD inh	canonical_smiles
-17.2%	COC(=O)CNC(=O)c1cn(CC(C)C)c(=O)c2cc(OC)c(OC)cc12
-8.2%	COc1cc(-c2ccc(NC(=O)CN3CCC(C)CC3)c(OC)c2)ccc1NC(=O)CN1CCC(C)CC1
-8.7%	CSc1nc(C)cc(OCC(=O)N2CCOCC2)n1
28.2µM*	O=C(CCCCCNC(=O)c1ccccc1)N/N=C/c1ccc(O)cc1O
-9.0%	O=C(CCN1CCCCCC1)Nc1ccc(F)c(F)c1
-16.2%	COc1ccc(-c2nc(CSCC(=O)N3CCN(C(=O)c4ccco4)CC3)c(C)o2)cc1OC
-1.0%	CC(=O)N1CCC2(CC1)CCN(C(=O)Nc1cccc(C#N)c1)CC2
-7.7%	O=C(CSc1nc2ccccc2[nH]1)NC1CCCc2ccccc21 (stereo unspecified)
-6.4%	NC(=O)c1cccnc1Nc1cccc(F)c1
-11.3%	CCOC(=O)C1CCN(C(=O)CCNC(=O)Cn2ccc3ccccc3c2=O)CC1
-8.2%	Cc1ccnc(SCCn2c(N3CCCCC3)nc3c2c(=O)[nH]c(=O)n3C)n1
-10.9%	CCc1nnc(NC(=O)CCC(=O)N2CCN(Cc3cc(F)ccc3OC)CC2)s1
-12.8%	CCCCOCCCNC(=O)c1ccc(NC(C)=O)cc1
-11.7%	CCc1ccc(OCC2c3cc(OC)c(OC)cc3CCN2C(=S)NCCOC)cc1 (stereo unspecified)
-0.8%	CCC(=O)O[C@H](CC(=O)O)C[N+](C)(C)C
-20.3%	c1ccc2[nH]c(CN3CCCCC3)nc2c1
-4.4%	Cc1ccc(NC(=O)C(Nc2ccccc2)c2ccccc2)cc1 (stereo unspecified)
?	CN(C)c1ncc(S(=O)(=O)c2ccc(Cl)cc2)c(-c2ccc(Cl)cc2Cl)n1
-8.4%	Cc1c(C(=O)NCCCN2CCCC2=O)oc2ccccc12
-2.6%	CCn1c(=O)n(CC)c2cc([N+](=O)[O-])ccc21
?	CCc1ccc(N(CC(=O)Nc2sc3c(c2C(=O)OC)CCCC3)S(C)(=O)=O)cc1
-24.5%	O=C(Nc1cc(S(=O)(=O)N2CCCC2)ccc1OCC(F)(F)F)c1ccc(F)cc1
-22.0%	COc1cc(C(CCN2CCOCC2)c2c(OC)cc(OC)c3c(-c4ccccc4)cc(=O)oc23)cc(OC)c1OC (stereo unspecified)
-8.0%	COc1ccccc1-c1c(NC(=O)c2ccco2)n(-c2ccccc2)nc(C)c1=O
-27.1%	O=C(CSc1nnc(Cn2c(=O)sc3ccccc32)n1-c1ccccc1)Nc1nccs1
3.2%	O=C(O)CSc1nnc(-c2ccncc2)n1-c1ccc(Cl)cc1
-3.9%	O=C(Nc1ccc(N=Nc2ccccc2)cc1)c1ccc(Cl)cc1Cl
-8.9%	C=CCN1C(=O)C(Cc2ccc(OCC)cc2)SC1=Nc1ccc(C(=O)O)cc1 (stereo unspecified)
?	CCC(=O)N(Cc1ccco1)c1nc(C(=O)Nc2ccc(Cl)cc2)c(C)s1
?	CCN(C(=O)COC(=O)c1n[nH]c2ccccc12)C1CCS(=O)(=O)C1 (stereo unspecified)
?	CCOC(=O)c1nn(-c2ccc(F)cc2)c2c1CC/C2=C/c1ccccc1
-17.6%	Clc1ccccc1CSc1cc2c(nn1)-c1ccccc1CC2
-9.0%	CC1CCN(c2nc(NCc3ccco3)nc(N)c2[N+](=O)[O-])CC1
-7.6%	Cc1ccc(C)c(NC(=O)Cc2coc3cc4c(cc23)CCC4)c1
?	CC(C)(C)c1ccc(C(=O)N2CCNCC2)cc1
-19.3%	Cn1c(=O)c2nc(NCc3ccccc3)cnc2n(C)c1=O
-14.3%	COc1ccccc1C1CC(=O)Nc2c1c(=O)n(C)c(=O)n2C (stereo unspecified)
-18.8%	CC(=O)Nc1nc(COc2ccc3ccccc3c2)cs1
-16.1%	CCOC(=O)CC(=O)c1cc(OC)c(OC)c(OC)c1
-3.3%	CCC1(CC)Cc2ccccc2C(C2=C(O)CC(C)(C)CC2=O)=N1
-20.3%	CCOC(=O)c1c(CSC(=N)N)n(-c2ccc(C)cc2)c2cc(Br)c(OC(C)=O)cc12
3.2%	CC(C)(CO)Nc1nc(N2CCCC2)nc(N2CCCC2)n1
-25.6%	Cc1cc(C(F)(F)F)nn1Cc1n[nH]c(=S)n1-c1cccc(Cl)c1
-8.0%	O=C(c1ccc(S(=O)(=O)N2CCCCC2)cc1)N1CCN(c2ccccc2F)CC1
-25.4%	CC(=O)C1=C(c2ccccc2)OC(N)=C(C#N)C1c1ccccc1F (stereo unspecified)
-6.4%	O=C(Nc1ccccc1)N1CC[C@@]2(CCCN(C(=O)c3ccco3)C2)C1
-4.8%	O=C(Cn1ncc2c(=O)oc3ccccc3c21)NCCN1CCN(c2ccccc2F)CC1
-4.1%	C=CCNC(=O)CN(c1ccc(F)c(Cl)c1)S(C)(=O)=O
-5.5%	COC(=O)C1C(=O)c2c([nH]c(C(=O)OC3CCCCCC3)c2C)CC1C (stereo unspecified)
-3.2%	O=C(OCC(=O)N1CCOCC1)c1ccc2c(c1)OCCO2

Not all compounds are listed; rates above refer to the full screens.
